PABP polyA inh = PABP poly(A) RNA binding inhibitors, primary screen, biochemical, fluorescence polarization, uHTS; inhibition, % at 35 µM; 1% of 290,000 active; Polyadenylate-binding protein 1 (Homo sapiens), P11940;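 active = 50% or more with normal probe brightness, or confirmed in later tests; inconclusive = above 50% with abnormal brightness, or retests that disagree; inactive = below 50% or failed in later tests; about a fifth of its hits are not listed in these tables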;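 also: calls also rest on retests at 20 µM and on dose response follow-up; controls were probe without protein and protein plus probe with vehicle; some compounds called inactive have numbers as strong as hits; many hits fall short of the cut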
Target sequence (P11940 whole entry, looked up): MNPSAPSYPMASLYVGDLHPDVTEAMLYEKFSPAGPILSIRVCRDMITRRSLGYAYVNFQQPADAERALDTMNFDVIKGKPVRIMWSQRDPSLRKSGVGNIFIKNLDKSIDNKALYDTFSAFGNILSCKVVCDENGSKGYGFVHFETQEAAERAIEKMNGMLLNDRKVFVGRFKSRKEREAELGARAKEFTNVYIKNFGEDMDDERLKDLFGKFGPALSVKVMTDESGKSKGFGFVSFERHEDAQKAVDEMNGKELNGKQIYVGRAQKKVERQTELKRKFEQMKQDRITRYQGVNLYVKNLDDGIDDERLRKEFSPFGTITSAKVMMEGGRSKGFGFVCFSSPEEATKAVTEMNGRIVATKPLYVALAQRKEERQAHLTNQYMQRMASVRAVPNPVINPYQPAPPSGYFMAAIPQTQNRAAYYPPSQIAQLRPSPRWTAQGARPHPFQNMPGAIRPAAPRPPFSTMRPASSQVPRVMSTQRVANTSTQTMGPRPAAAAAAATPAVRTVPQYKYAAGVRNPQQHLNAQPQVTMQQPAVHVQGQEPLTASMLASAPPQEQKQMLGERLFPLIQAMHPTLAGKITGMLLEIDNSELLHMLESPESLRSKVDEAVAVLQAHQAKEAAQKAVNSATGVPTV
CSC inhib = cancer stem cell viability inhibitors, primary screen, luminescence | inhibition, % at 7.5 µM | cancer stem cell-like cells viability | 1.1% of 300,000 active;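 active = mean at 75% or more and at least half the replicates too; inconclusive = mean and replicates disagree; tested in HMLE shEcad cells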;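 also: 0% = median of negative and 100% = median of positive control wells; the first replicate is given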
HIV Env fusion = inhibitors of HIV-1 Env-driven cell-cell fusion, primary screen, HeLa-JRFL effector, CEM21 target cells, luciferase; inhibition, % at 12.3 µM; 1.1% of 360,000 active;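 active = mean replicate inhibition score of at least 50 and every replicate individually at or above 50; inconclusive = only one of the two criteria met; inactive = mean below 50 and not all replicates reaching 50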;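 also: 0% = plate neutral controls and 100% = maraviroc near 300 nM; one replicate is shown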
MT1-MMP act inh = blockers of MT1-MMP proenzyme processing, primary screen, HT1080 RFP-PRO-GFP cells, GFP/RFP fluorescence | Matrix metalloproteinase-14 (Homo sapiens), P50281 | GFP/RFP ratio fluorescence, overnight; percent of plate control window, DMSO zero | GFP/RFP ratio change, % at 20 µM | 0.061% of 360,000 active | AID 651647, 2012;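 active = GFP/RFP ratio change of at least 30% with cell ATP level not reduced by more than half and red fluorescence within 50% of control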; also: strong numbers were not always called active
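Material: RFP-PRO-GFP reporter HT1080 cells. Dosing: single-point 20 µM compound, 1% DMSO. Controls: DMSO and RFP-L50D-GFP cell wells. Timing: cells overnight before dosing, compound overnight, 37 °C, 5% CO2. Measure: GFP/RFP fluorescence ratio.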
Rce1 inhib = yeast Rce1p protease inhibitors, primary screen, biochemical, fluorescence, cell-free homogeneous | CAAX prenyl protease 2 (Saccharomyces cerevisiae (strain ATCC 204508 / S288c)), Q03530 | yeast membranes, quenched prenylated peptide cleavage fluorescence | calls only | 0.27% of 290,000 active | AID 2563, 2010;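 active = fall in fluorescence gain of 50% or more versus controls, with final raw signal at or below 3038400; inconclusive = same 50% fall but final raw signal above 3038400; inactive = fall in fluorescence gain under 50%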;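 also: plate controls were neutral control wells for no effect and wells lacking membranes for full effect; tested at 10 µM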
eIF4H inh = human eIF4H binding inhibitors, primary screen, translation initiation inhibitor project, biochemical, uHTS, fluorescence polarization | Eukaryotic translation initiation factor 4H (Homo sapiens), Q15056 | eIF4H fluorescence polarization binding assay | inhibition, % at 35 µM | 0.94% of 290,000 active;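 active = 50% or more with normal probe brightness, or confirmed in later tests; inconclusive = above 50% with abnormal brightness, or retests that disagree; inactive = below 50% or failed in later tests; about a fifth of its hits are not listed in these tables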;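 also: calls also rest on retests at 20 µM and on dose response follow-up; 0% = protein and probe with vehicle and 100% = probe without protein; strong numbers were not always called active; many hits fall short of the cut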
Yeast UUG start = modulators of yeast start codon fidelity, primary screen, whole organism, S. cerevisiae, single point, plate reader. activity score, % at 18.7 µM. 0.13% of 350,000 active. S. cerevisiae UUG-firefly luciferase reporter, luminescence/redox ratio;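 active = replicate mean at a twofold rise or more, about +100% in these data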;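 also: firefly luciferase made from a UUG start codon reports start codon fidelity; reporter light over untreated wells divided by growth signal over untreated wells; some hits fall short of that in this replicate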
PABP polyA inh retest = also measured in PABP polyA inh; calls as there; inhibition, %; compound at 20 µM; confirmation repeats;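 mean of two retest wells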
MT1-MMP act inh RFP = recorded beside MT1-MMP act inh, whose call it bears; RFP signal change, %; measured here: RFP expression control read;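 0 = vehicle wells; hits needed this value within 50% of zero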
An asterisk follows results filed as active; i = inactive; ? = inconclusive; . = no result given; & = joins results of further samples.

SMILES	PABP polyA inh	CSC inhib	HIV Env fusion	MT1-MMP act inh	MT1-MMP act inh RFP	Rce1 inhib	eIF4H inh	Yeast UUG start	others
CCOc1ccc(C(c2c(O)nc(SC)[nH]c2=O)c2c(O)nc(SC)[nH]c2=O)cc1	.	-1.9	14.3	-1.3	0.6	i	.	-8.7
Cc1ccc(S(=O)(=O)c2nnn3c2nc(N2CCN(c4ccccn4)CC2)c2ccccc23)cc1	-6.3	-2.7	-14.1	-3.9	0.7	i	-8.0	-19.1
CCCCCCNC(=O)Cc1nc2nc(C)cc(C)n2n1	3.9	-4.6	-52.5	-1.5	0.9	i	-7.5	.
O=C(NC(=S)Nc1cccnc1)c1cccc(Cl)c1	.	.	-28.1	2.1	5.1	.	.	-19.7
O=C1/C(=C/c2ccc(F)cc2)CCC1C1CCCC1 (stereo not given)	-8.1	-1.5	.	-0.6	3.1	i	-14.2	-32.4
Cc1cccc(NCc2ccc([N+](=O)[O-])s2)c1	6.1	7.1	3.7	3.0	1.6	i	-4.5	-14.5
Cn1c(=O)n(C)c2cc(NS(C)(=O)=O)ccc21	6.9	3.8	.	7.2	-0.1	i	1.7	-16.2
CC(NC(=O)C(=O)NCC1CCCO1)c1ccccc1 (stereo not given)	-1.1	-3.2	6.2	-1.8	-1.1	i	-2.0	.
CCOc1cc(C(=O)NCc2ccccc2)ccc1OCC(=O)N1CCCCC1	.	.	0.5	5.5	2.5	.	.	-9.9
Cn1cccc1/C=N/NC(=O)c1cccc(OC(F)(F)C(F)F)c1	-8.4	14.8	.	6.9	3.2	i	-0.1	.
COc1ccc(S(=O)(=O)CCC(=O)N2CCN(c3cccc(Cl)c3)CC2)cc1	7.3	13.5	-1.5	2.1	-2.6	i	-4.0	-13.1
Cc1cc(Cl)cc(Br)c1OCCCN1C(=O)NC(C)(C)C1=O	-4.5	-5.8	24.3	-1.4	-5.8	i	-0.3	-4.0
CNCc1ccccc1OCC(=O)Nc1ccccc1OC	-2.3	-2.0	5.9	5.5	4.7	.	-6.1	-10.9
COC(=O)CSc1nnc(CSc2nc(C)cc(C)n2)n1Cc1ccco1	-0.2	10.3	-36.4	3.2	4.7	i	-0.4	.
CCC(c1nnnn1Cc1ccco1)N(CCc1ccccc1)Cc1cc2ccc(OC)cc2[nH]c1=O (stereo not given)	12.2	15.7	.	-11.7	1.7	i	15.4	.
COc1ccc(CCNc2nc3ccccc3n3nnnc23)cc1OC	120.2*	3.7	4.9	-10.8	0.1	i	?	-8.1	PABP polyA inh retest=78.2*
CCc1cc2cc3c(cc2nc1SCC(=O)Nc1nnc(C)s1)OCCO3	-1.4	24.2	.	3.1	-1.1	i	-8.1	-3.7
CCCCN(CC)Cc1ccc(CNC(=S)Nc2c(C)cc(C)cc2C)o1	18.3	-11.0	1.4	1.4	3.9	i	2.4	.
O=c1c2[nH]c3ccccc3c2ncn1CCC1=CCCCC1	-4.2	10.7	-209.6	8.6	2.7	i	-8.5	-13.6
Cc1ccc(S(=O)(=O)N(C)C(=O)NC(=O)NS(=O)(=O)c2ccccc2)cc1	7.6	-6.9	2.0	1.3	3.9	i	4.5	-23.0
CC(NC(=O)c1ccccc1)c1nnc(SCC(=O)NC2CCCC2)n1C (stereo not given)	-1.1	12.2	-12.9	4.2	1.5	i	-2.7	-8.4
O=C(O)c1ccc(CN(Cc2ccccc2)S(=O)(=O)c2ccc(Cl)cc2)cc1	22.7	1.6	4.0	0.0	-0.2	i	20.0	.
COc1cc2cc(CN(Cc3cccs3)C(=S)Nc3cccc(C)c3)c(=O)[nH]c2cc1OC	-6.5	30.2	.	.	.	i	1.5	.
COC(=O)C1=C(C)NC(C)=C(C(=O)OC)C1c1ccc(N(C)C)cc1	-6.6	5.0	1.3	-2.0	1.0	i	-10.5	1.1
Cc1[nH]c(C)c(S(=O)(=O)Nc2cccc(Cl)c2C)c1C(=O)N1CCCCC1	3.0	-9.6	5.4	1.5	1.2	i	-0.1	2.3
Cc1ccc(C(=O)NNC(=O)CCN2C(=O)C3CCCCC3C2=O)cc1 (stereo not given)	-8.2	-9.3	.	2.2	5.4	i	-6.7	.
O=C(Nc1cccc(F)c1)Nc1c[nH]c(=O)[nH]c1=O	1.0	-6.7	8.0	1.2	-0.6	i	3.2	-19.5
COc1ccc(CN2CCNC(=O)C2CC(=O)NCCSc2nccn2C)c(OC)c1 (stereo not given)	3.9	-10.7	7.1	0.6	0.5	i	1.7	-5.6
CN(C)CCN(Cc1cc2cc3c(cc2[nH]c1=O)OCCO3)C(=S)NCC1CCCO1 (stereo not given)	0.8	2.4	-10.2	1.4	1.8	i	4.3	.
CCOC(=O)c1c(NC(=O)Cc2cccs2)sc(C)c1C	3.7	.	.	-4.5	-5.4	i	-0.4	2.0
CCN1CCN(Cc2ccc(NC(=O)c3ccc(C)c(NC(=O)C[C@@H]4NC(=O)[C@H](Cc5ccccc5)NC4=O)c3)cc2C(F)(F)F)CC1	-7.5	-22.6	14.7&6.2	1.7&0.8	0.5&4.3	i	0.1	-0.6&-0.7
O=C(NCc1ccccc1)C1CCCN1S(=O)(=O)c1ccc(F)cc1 (stereo not given)	9.4	-4.7	3.8	1.1	0.9	i	2.4	-7.3
COC(=O)C1=C(C)NC(=O)NC1c1cc(Cl)ccc1OC (stereo not given)	2.1	-9.1	2.9	-1.3	-3.4	i	-0.4	-17.8
CO/C([O-])=N/c1c[n+](-c2ccc(C)cc2)no1	6.4	-7.7	.	3.0	4.7	i	4.1	-9.8
CCCOc1ccc(Oc2nc(-c3ccncc3)nc3ccccc23)cc1	-14.4	.	7.0	-3.5	-6.9	i	-7.1	-12.1

Ten structures already listed, arranged by heavy-atom count, smallest number first:
SMILES	PABP polyA inh	CSC inhib	HIV Env fusion	MT1-MMP act inh	MT1-MMP act inh RFP	Rce1 inhib	eIF4H inh	Yeast UUG start	others
CO/C([O-])=N/c1c[n+](-c2ccc(C)cc2)no1	6.4	-7.7	.	3.0	4.7	i	4.1	-9.8
O=C(Nc1cccc(F)c1)Nc1c[nH]c(=O)[nH]c1=O	1.0	-6.7	8.0	1.2	-0.6	i	3.2	-19.5
COC(=O)C1=C(C)NC(=O)NC1c1cc(Cl)ccc1OC (stereo not given)	2.1	-9.1	2.9	-1.3	-3.4	i	-0.4	-17.8
COC(=O)C1=C(C)NC(C)=C(C(=O)OC)C1c1ccc(N(C)C)cc1	-6.6	5.0	1.3	-2.0	1.0	i	-10.5	1.1
Cc1ccc(C(=O)NNC(=O)CCN2C(=O)C3CCCCC3C2=O)cc1 (stereo not given)	-8.2	-9.3	.	2.2	5.4	i	-6.7	.
CC(NC(=O)c1ccccc1)c1nnc(SCC(=O)NC2CCCC2)n1C (stereo not given)	-1.1	12.2	-12.9	4.2	1.5	i	-2.7	-8.4
O=C(O)c1ccc(CN(Cc2ccccc2)S(=O)(=O)c2ccc(Cl)cc2)cc1	22.7	1.6	4.0	0.0	-0.2	i	20.0	.
COc1ccc(CN2CCNC(=O)C2CC(=O)NCCSc2nccn2C)c(OC)c1 (stereo not given)	3.9	-10.7	7.1	0.6	0.5	i	1.7	-5.6
COc1cc2cc(CN(Cc3cccs3)C(=S)Nc3cccc(C)c3)c(=O)[nH]c2cc1OC	-6.5	30.2	.	.	.	i	1.5	.
CCN1CCN(Cc2ccc(NC(=O)c3ccc(C)c(NC(=O)C[C@@H]4NC(=O)[C@H](Cc5ccccc5)NC4=O)c3)cc2C(F)(F)F)CC1	-7.5	-22.6	14.7&6.2	1.7&0.8	0.5&4.3	i	0.1	-0.6&-0.7
